StopGo RLuc: FMDV 2A StopGo reporter, Renilla signal; actives 0.32% (n = 120,000); HEK cells with a luciferase reporter of 2A StopGo recoding; Potency, µM (highest dose often 57.5 µM), for the others: top-dose signal change, negative = less light; active means well fitted falling curve with a large enough effect; inconclusive means small, poorly fitted or top-dose-only effect; inactive means no such curve, though single readings can be large or run the other way; further: nearly all actives have a fitted effect of over 55% in size; overnight with compound
StopGo FLuc: lowers the firefly signal of an FMDV 2A StopGo reporter; HEK cells with a luciferase reporter of 2A StopGo recoding; Potency, µM (doses to about 57.5 µM), without a hit: top-dose signal change, negative = less light; actives 0.23% (n = 120,000); active = well fitted falling curve with a large enough effect; inconclusive = small, poorly fitted or top-dose-only effect; inactive = no such curve, though single readings can be large or run the other way; further: nearly all actives have a fitted effect of over 60% in size; overnight with compound
The depositor's hits bear a star; ? = inconclusive; & = joins results of further samples; [ ] = dose if it differs, or a comment. On the % scale 0 is the no-effect control and ±100 the full control effect; potency means the concentration at half of the fitted maximal effect.

SMILES	StopGo RLuc	StopGo FLuc
COc1ccccc1CNC(=O)CN1C(=O)CSc2ccc(S(=O)(=O)N(C)C)cc21	-3%	-20%
CC(C)CCn1c(Oc2ccc(Cl)cc2)nc2c1c(=O)n(C)c(=O)n2C	0%	7%
CCCCS(=O)(=O)c1oc(-c2ccc(F)cc2)nc1S(=O)(=O)c1ccccc1	6%	28µM*
Cc1ccc2c(=O)cc(C(=O)Nc3cccnc3)oc2c1C	-2%	8%
CCCNc1c(NC(=O)Cc2ccccc2)c(=O)oc2ccccc12	21%	4%
CCOc1ccc(/C=C/c2nc3ccccc3n2S(=O)(=O)c2ccc(Br)cc2)cc1	13%	300%[activator]
N=C1C(c2nc(-c3ccc(Cl)cc3)cs2)=C(O)CN1NC(=O)c1ccc(O)cc1	-6%	98%[activator]
Cc1ccc(-c2nn(CCC(=O)Nc3ccc(OC(F)(F)F)cc3)c(=O)c3ccccc23)cc1	-7%	-24%
CCOc1ccc(-n2c(=O)c3c(C)c(C)sc3n(Cc3cc(=O)n4cc(Cl)ccc4n3)c2=O)cc1	23%	4%
Cc1cc2cc(NS(=O)(=O)c3cccc(F)c3)ccc2[nH]1	113%[activator]	57%[activator]
Cc1ccc(C(=O)N/C(=C\c2ccc(Cl)cc2)C(=O)NC2CCCCC2)cc1	-3%	-15%
COc1cc(CCC(=O)OCC(=O)c2ccccc2Br)cc(OC)c1OC	-4%	12%
CCOc1ccc(S(=O)(=O)n2ccnc2)cc1C(C)(C)C	109%[activator]	11%
COc1ccc(-c2nc3cc(NC(=O)C(C)C)ccc3o2)cc1Cl	-1%	76%[activator]
CCCCn1c(CN2CCN(C(=O)c3ccco3)CC2)nc2c1c(=O)[nH]c(=O)n2Cc1ccccc1	37%[activator]	31%[activator]
O=C(c1ccc(Cl)cc1Cl)N(CCS(=O)(=O)N1CCCC1)Cc1ccncc1	3%	-6%
CCS(=O)(=O)CCSC(C)C(=O)O (stereo not drawn)	-4%	1%
COc1ccc(N(Cc2cc(=O)[nH]c3ccccc23)C(=O)C(C)C)cc1	4%	5%
CN(CCCNC(=O)c1cc2c(Cl)nc3ccccc3c2s1)Cc1ccccc1	-9%	-31%
O=C(NCCc1ccc(Cl)cc1)C12CC3CC(CC(Cl)(C3)C1)C2	-3%[1.06 µM]	?
Cc1c(C(=O)Nc2cccc(C(F)(F)F)c2)sc2nc[nH]c(=O)c12	-8%	25%
Cc1ccccc1NC(=O)CCCn1cnc2c1c(=O)n(C)c(=O)n2C	-5%	3%
O=C(NCc1ccco1)c1ccc2c(c1)N(Cc1ccccc1)C(=O)c1ccccc1S2=O (stereo not drawn)	47%[activator]	6%
CN(Cc1ccccc1NC(=O)c1ccccc1C(F)(F)F)C1CCCCC1	1%	-6%
O=C(O)CCC(=O)N1CCCCC1	16%	20%
Further compounds follow.
SMILES	StopGo RLuc	StopGo FLuc
O=C(Cn1nc(-c2ccccc2F)ccc1=O)N1CCC(Cc2ccccc2)CC1	0%	-17%
CCCS(=O)(=O)Nc1cccc(-c2cn3ccsc3n2)c1	80%[activator]	32%[activator]
O=C(COC(=O)c1cccc(S(=O)(=O)NCc2ccco2)c1)c1ccccc1	139%[activator]	72%[activator]
NC(=O)C1CCN(Cc2cc(=O)oc3cc(-c4ccccc4)c(O)cc23)CC1	-12%	48%[activator]
CCOC(=O)Cn1cccc1-c1nc(-c2ccc(OC)cc2)c(-c2ccc(OC)cc2)s1	-14%	-14%
CC1(C)CC(NC(=O)CCCCC(=O)NC2CC(C)(C)NC(C)(C)C2)CC(C)(C)N1	8%	6%
c1ccc(CNCC2CCCO2)cc1 (stereo not drawn)	5%	0%
CC(=O)NC(C)c1ccc(-c2ccccc2)cc1 (stereo not drawn)	-6%	61%[activator]
CCc1ccccc1NC(=O)CNC(=O)c1cc2ccc(F)cc2nc1C	-17%	-7%
CC(=O)Nc1ccc(S(=O)(=O)Nc2ccc([N+](=O)[O-])cc2)cc1	209%[activator]	-7%[11.5 µM]
O=C(c1ccc(C(F)(F)F)cc1)N1CCCN(C2CC2)CC1	-7%	3%
CCOc1ccc(CCNC(=O)c2cc3n(n2)CCCN(Cc2ccc(C)cc2)C3=O)cc1OCC	-1%	-26%
Cc1cccc(OC(=O)c2ccccc2Br)c1C	5%	23%
Cc1ccc(-c2n[nH]c3c2C(c2cccs2)N(c2ccc(Cl)cc2)C3=O)cc1 (stereo not drawn)	?	?
Cc1ccc(-n2c(=O)[nH]c3cc(C(=O)NCCc4ccccc4)ccc3c2=O)cc1	4%	4%
O=C(CSc1nnc2n(-c3ccccc3)c(=O)c3ccccc3n12)Nc1ccccc1C(F)(F)F	-4%	0%
CCc1ccccc1NC(=O)N1CCN(Cc2nc3ccc(C)cc3o2)CC1	-15%	-16%
COc1ccc(C(=O)Nc2cc(-c3nc4ncccc4o3)ccc2C)cc1Br	0%	-12%
COCCN(CCOC)C(=O)c1cc2c(=O)n3ccccc3nc2n1C	-9%	1%
COC(=O)c1cccc(NC(=O)NCc2c(-n3cccc3)sc3c2CCN(C)C3)c1	-10%	-11%
Cc1ccc(-c2cc(=O)c3cc(Br)ccc3o2)cc1	17%	210%[activator]
CC(C)Sc1ccc2nn(CC(=O)Nc3ccc(Cl)cc3)c(=O)n2n1	-2%	2%
Cn1c(=O)c2c(nc(NCCc3ccccc3)n2Cc2ccc(Cl)cc2)n(C)c1=O	-11%	39%[activator]
O=C(NCC1(c2ccccc2)CCCC1)c1ccc(S(=O)(=O)N2CCOCC2)cc1	-8%	-3%
CC(=O)NCCNC(=O)Cn1c(C)c(Br)c2ccccc21	-20%	-13%

Filtered by structure, the entries above containing a COOH group (2)
SMILES	StopGo RLuc	StopGo FLuc
CCS(=O)(=O)CCSC(C)C(=O)O (stereo not drawn)	-4%	1%
O=C(O)CCC(=O)N1CCCCC1	16%	20%

Shown bar-delimited: entries from further up.
SMILES | StopGo RLuc | StopGo FLuc
CC(=O)Nc1ccc(S(=O)(=O)Nc2ccc([N+](=O)[O-])cc2)cc1 | 209%[activator] | -7%[11.5 µM]
O=C(c1ccc(C(F)(F)F)cc1)N1CCCN(C2CC2)CC1 | -7% | 3%
CCOc1ccc(CCNC(=O)c2cc3n(n2)CCCN(Cc2ccc(C)cc2)C3=O)cc1OCC | -1% | -26%
Cc1cccc(OC(=O)c2ccccc2Br)c1C | 5% | 23%
Cc1ccc(-c2n[nH]c3c2C(c2cccs2)N(c2ccc(Cl)cc2)C3=O)cc1 (stereo not drawn) | ? | ?

(list continues)
SMILES	StopGo RLuc	StopGo FLuc
CN(C)S(=O)(=O)N(CC(=O)N1CCN(c2cccc(Cl)c2)CC1)c1ccc(F)cc1	-22%	?
COc1ccc(N(C)C(=O)c2cn(C3CCCCC3)c(=O)c3c2c2ccccc2n3C)cc1	18%	-16%
Cc1cccc(Cn2c(=O)n(Cc3ccccc3)c(=O)c3c2c2cc(C)ccc2n3C)c1	-7%	-20%
COc1ccc(-c2cc(C(=O)N3CCN(c4ncccn4)CC3)c3ccccc3n2)cc1OC	64%[activator]	89%[activator]
CC1=C(C(=O)Nc2ccccc2)C(c2ccccn2)n2nc(SCc3ccccc3)nc2N1 (stereo not drawn)	-15%	-18%
CCOC(=O)c1cnc2ccccc2c1Nc1cccc(OC)c1	-26%&-11%	-26%&-13%
CCCCCC(=C/c1ccccc1)/C=N/Nc1nc2ccccc2[nH]1	161%[activator]	55%[activator]
CCC(CN)c1ccccc1 (stereo not drawn)	-3%	-4%
CCOc1ccc(Cl)cc1S(=O)(=O)NCCO	122%[activator]	-2%
Cn1nc(CC(=O)Nc2ccc(O)cc2)c2ccccc2c1=O	-24%	?
Cc1ccc(/C=N/Nc2cc(C)c3ccccc3n2)s1	-7%	162%[activator]
Cc1ccccc1C(=O)c1cccn1CC(=O)NCc1ccc(Cl)cc1	17%	94%[activator]
Cc1ccc(-c2onc(C)c2C)cc1S(=O)(=O)N1c2ccccc2CC1C (stereo not drawn)	-25%	?
O=C(CN(c1ccc(Cl)cc1Cl)S(=O)(=O)c1ccccc1)N1CCCC1	70%[activator]	2%
Cc1ccc(NC(=O)C2CC(=O)NC(Nc3nc(C)c4ccccc4n3)=N2)cc1Cl (stereo not drawn)	4%	-8%
COc1cc(CNc2ccc3[nH]c(=O)[nH]c3c2)cc(Br)c1OCc1ccc(F)cc1	-11%	0%
O=C(NCCc1ccc(O)cc1)Nc1ccc(F)cc1	16%	92%[activator]
COc1cc(NC(=O)Cn2c(=O)n(C(C)C)c(=O)c3oc4ccccc4c32)cc(OC)c1	-10%	-15%
COc1ccc(C)cc1NC(=O)C1CCCN(c2ncnc3onc(C)c23)C1 (stereo not drawn)	3%	-9%
CC(=O)c1c(C)n([O-])c2ccccc2[n+]1=O	-1%	4%
Cc1ccn2c(=O)cc(COc3ccc(NC(=O)COc4ccccc4)cc3)nc2c1	1%	0%
Cc1ccc(/C=C/c2onc(C)c2S(=O)(=O)N2CCC(C(=O)N3CCN(c4cc(C)ccc4C)CC3)CC2)cc1	-8%	-1%
Cc1ccc(N(CCC#N)C(=O)CSc2cc(C)c3ccccc3n2)cc1	-5%	-16%
CCCOc1c(/C=N/O)cccc1OC	0%	-2%
O=C(NCCc1ccccc1)Nc1ccc(Cl)cc1F	-7%	144%[activator]
(more compounds)
SMILES	StopGo RLuc	StopGo FLuc
Clc1ccccc1-c1csc(-c2ccccc2)n1	20%	17%
O=C(CCC1N=C2c3ccccc3N=C(SCc3cccc(F)c3)N2C1=O)NCc1cccs1 (stereo not drawn)	-9%	-26%
CCOc1ccccc1-c1noc(COC(=O)Cc2n[nH]c(=O)c3ccccc23)n1	-4%	10%
Cc1cc2c(cc1S(=O)(=O)CCC(=O)N1CCC(C)CC1)OCC(=O)N2	2%	-11%
CCNC(=O)c1cccc(NC(=O)c2cnc3ccccc3n2)c1	3%	63%[activator]
COc1ccccc1CC(=O)NC1CCCC1	5%	9%
O=C(CCc1ncc(-c2ccccc2)o1)Nc1ccc2ccccc2n1	-15%	30%[activator]
NC(=S)NNC(N)=S	2%	-4%
Cc1nc(-c2ccc(C)c(S(=O)(=O)N3CCCC(C(=O)NCc4ccc5c(c4)OCO5)C3)c2)no1 (stereo not drawn)	19%	17%
CCN(CC)CCNC(=O)c1sc2nc3n(c(=O)c2c1C)CCCCC3	4%	23%
CCN1CCN(C(=O)c2cnn(-c3ccc(F)cc3)c2-n2cccc2)CC1	3%	-6%
N#Cc1ccc(COC(=O)c2ccc3ccccc3n2)cc1	-1%	0%
COc1ccccc1OCCn1c(C)nc2cc(C)c(C)cc21	?	-26%
COc1ccc(CCNC(=O)Cn2c(-c3cccs3)cc3cc(F)ccc32)cc1OC	38%[activator]	39%[activator]
Cc1cccc(C(=O)NCCc2c[nH]c3ccc(C)cc23)c1	13%	19%
N#Cc1ccccc1Sc1ccccc1C(=O)NCCc1ccc2c(c1)OCCO2	?	?
COCCCNC(=O)c1cc(-c2cc(C)ccc2C)nc2ccccc12	8%	-1%
CC(C)n1nc(C(=O)NCC2(N3CCOCC3)CCCCC2)c2ccccc2c1=O	-1%	-10%
COC(=O)C(C)CNCc1ccccc1 (stereo not drawn)	2%	-6%
COc1ccc(CNC(=O)CCc2c(C)nn(-c3ccc(N4CCCC4)nn3)c2C)cc1	-6%	-8%
CCOC(=O)c1ccc(CN(Cc2ccc(C)cc2)S(=O)(=O)c2ccc(NC(C)=O)cc2)cc1	46%[activator]	?
O=S(=O)(c1ccccc1)c1nnn2c1nc(NCc1ccc(F)cc1)c1sccc12	5%	-12%
Nc1cc(N)nc(SCCC(=O)Nc2ccc(Br)cc2F)n1	13%	40%[activator]
CCCCNC(=O)C[C@H]1C[C@@]2(C(=O)OC)C(=C[C@H](C(C)C)O[C@@H]2C2CC2)N(CCC2=CCCCC2)C1=O	145%[activator]	0%
COc1ccc(NC(=O)C(C)Oc2cc(C)cc(C)c2)c2cccnc12 (stereo not drawn)	28µM*	?
(list continues)
SMILES	StopGo RLuc	StopGo FLuc
O=C(NCc1ccc(Cl)cc1)c1cnc2sc(N3CCCC3)nn2c1=O	-11%	-17%
CCC(C)(C)NC(=O)CSc1nnc(NC2CC2)s1	-13%	-4%
CNCC#CCOc1ccc(OC)cc1	-8%	6%
Cc1oc2cc(OCC(=O)NC3(C)CCS(=O)(=O)C3)ccc2c(=O)c1Oc1ccccc1 (stereo not drawn)	1%	15%
CC(C)CCn1nc(C(=O)Nc2nc(-c3ccc(F)cc3)cs2)c2ccccc2c1=O	-8%	-7%
O=C(Cn1c(=O)n(-c2ccccc2)c(=O)c2sccc21)NC1CCc2ccccc21 (stereo not drawn)	10%	33%[activator]
CNC(=O)CN(C)Cc1coc(-c2ccc(C)cc2)n1	-2%	135%[activator]
S=C(NCCc1ccccc1)Nc1ccccc1I	-16%	150%[activator]
COC(=O)c1ccc(NC(=O)COc2ccc3c(c2)OCCO3)cc1	13%	11%
CCOC(=O)c1c(NC(=O)C(C)Oc2ccccc2F)sc(C(C)=O)c1C (stereo not drawn)	-2%	-12%
Cc1ccc(CSc2nc3c(c(=O)[nH]2)C(c2cccc(F)c2F)CC(=O)N3)cc1 (stereo not drawn)	-16%	14%
CCOC(=O)c1c(C)c(-c2ccccc2)n(CC(=O)Nc2cc(C)cc(C)c2)c1C	-2%	-4%
CC(C)c1ccccc1NC(=O)CSc1nnc(COc2ccccc2)o1	2%	-11%
CCn1c(CN(c2ccc(C)cc2)S(C)(=O)=O)nnc1SCC(=O)c1ccccc1	-8%	-1%
CCC(=O)C1=C(c2ccc(F)cc2)N(C(=O)CC)n2c(nnc2-c2ccc(OC)cc2)S1	1%	-6%
CN(C)c1ccc(C(=O)Nc2ccccc2-c2ccccc2)cc1	-1%	-5%

One compound at a time (already shown).
O=C(CCC1N=C2c3ccccc3N=C(SCc3cccc(F)c3)N2C1=O)NCc1cccs1 (stereo not drawn) as listed: StopGo RLuc = -9%; StopGo FLuc = -26%
CN(Cc1ccccc1NC(=O)c1ccccc1C(F)(F)F)C1CCCCC1 as listed: StopGo RLuc = 1%; StopGo FLuc = -6%

Source: PubChem BioAssay
